Ecoli rRNA inh: inhibitors of bacterial rRNA selective over humanized ribosomes | AID 720706 | GFP signal change (wild-type ribosome), % (test concentration not listed) | actives 1.6% (n = 350,000) | E. coli WT GFP vs humanized-ribosome RFP mutants, fluorescence, 24 h; hits give low values; DMSO median 0, no signal -100;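 active = significant combined selectivity score with lowered wild-type GFP, culture density cut under 30%, mutant RFP and density less affected; inactive = any of these conditions unmet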; also: one replicate is shown; some compounds called inactive have numbers as strong as hits
Ecoli rRNA inh OD600: also measured in Ecoli rRNA inh; calls as there; OD600 change, %; measured here: OD600 growth;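 optical density of the mix in the first replicate; 0 = DMSO median and -100 = no signal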
Ecoli rRNA inh RFP: recorded beside Ecoli rRNA inh, whose call it bears; RFP signal change, %; measured here: RFP humanized mutant strains;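 first replicate; 0 = DMSO median and -100 = no signal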
* = called active by the depositor; & = joins results of further samples.

1. COC(=O)c1cc2c(c3c4cc(F)ccc4n(S(=O)(=O)c4ccc(C)cc4)c13)C(=O)N(Cc1ccc(N(C)C)cc1)C2
2. C[C@@H]1CN([C@H](C)CO)C(=O)c2cc(NS(=O)(=O)c3ccc(Cl)cc3)ccc2O[C@@H](C)CCCCO[C@H]1CN(C)S(=O)(=O)c1ccccc1
3. C[C@@H]1CN([C@H](C)CO)C(=O)Cc2cc(NS(=O)(=O)c3ccc(F)cc3)ccc2O[C@H]1CN(C)C
4. COc1ccc(NC(=O)N(C)C[C@@H]2Oc3ncc(-c4ccc(C#N)cc4)cc3C(=O)N([C@H](C)CO)C[C@H]2C)cc1
5. C[C@H](CO)N1C[C@H](C)[C@@H](CN(C)CC2CC2)OCCCC[C@H](C)Oc2ccc(NC(=O)CCCCCC(=O)Nc3ccccc3N)cc2C1=O
6. CCCNC(=O)N(C)C[C@H]1Oc2ncc(-c3ccncc3)cc2C(=O)N([C@@H](C)CO)C[C@@H]1C
7. Cc1nc2ccccc2nc1CC(O)(c1ccccc1)c1ccccc1
8. COc1ccc2c3c([nH]c2c1)[C@H](CO)N(C(=O)Cc1ccccn1)CC31CCN(Cc2ccccn2)CC1
Assay by compound,1,2,3,4,5,6,7,8
Ecoli rRNA inh,6,0,5,1,1,-1,-1,2
Ecoli rRNA inh OD600,12,-3,9,-8,4,-2,5,11
Ecoli rRNA inh RFP,6.9,-1.9,-1.8,1.0,8.7,-1.5,-2.4,1.4

Filtered by structure, those above containing a halogen (3)
1. COC(=O)c1cc2c(c3c4cc(F)ccc4n(S(=O)(=O)c4ccc(C)cc4)c13)C(=O)N(Cc1ccc(N(C)C)cc1)C2
2. C[C@@H]1CN([C@H](C)CO)C(=O)c2cc(NS(=O)(=O)c3ccc(Cl)cc3)ccc2O[C@@H](C)CCCCO[C@H]1CN(C)S(=O)(=O)c1ccccc1
3. C[C@@H]1CN([C@H](C)CO)C(=O)Cc2cc(NS(=O)(=O)c3ccc(F)cc3)ccc2O[C@H]1CN(C)C
Assay by compound,1,2,3
Ecoli rRNA inh,6,0,5
Ecoli rRNA inh OD600,12,-3,9
Ecoli rRNA inh RFP,6.9,-1.9,-1.8

(list continues)
9. C(=C\c1ccccc1)/CN1CCN(C(c2ccnc3ccccc23)c2nnnn2C2CCCC2)CC1 (stereo unspecified)
10. C[C@H](CO)N1C[C@H](C)[C@H](CN(C)C(=O)C2CC2)Oc2cc(C#C[C@@H](C)O)ccc2S1(=O)=O
11. CC=Cc1ccc2n(c1=O)C[C@H]1[C@H](CO)[C@@H](C(=O)NC3CCC3)N(S(C)(=O)=O)[C@@H]21 (mixture of isomers)
12. C[C@H](CO)N1C[C@H](C)[C@@H](CN(C)C(=O)Nc2ccc(F)cc2)Oc2c(NS(=O)(=O)c3ccc(Cl)cc3)cccc2C1=O
13. COC(=O)C[C@@H]1CC[C@@H](NS(=O)(=O)c2ccc(OC)cc2)[C@H](CO)O1
14. CNC[C@@H]1Oc2ccc(NS(=O)(=O)c3ccc(F)cc3)cc2C(=O)N([C@H](C)CO)C[C@@H]1C
15. CN1C(=O)c2cc(NC(=O)c3cccs3)ccc2OC[C@H]2O[C@@H](CC(=O)N3CCOCC3)CC[C@H]21
16. C[C@H](CO)N1C[C@H](C)[C@@H](CN(C)C(=O)NC2CCCCC2)Oc2c(NC(=O)Nc3ccc(F)cc3)cccc2C1=O
Assay by compound,9,10,11,12,13,14,15,16
Ecoli rRNA inh,-4,4,2,-1,3,10,0,7
Ecoli rRNA inh OD600,9,0,2,-5,7,1,6,10
Ecoli rRNA inh RFP,5.1,-1.1,-0.7,-2.0,-2.3,-2.1,-2.6,-0.3

17. C[C@H](CO)N1C[C@H](C)[C@@H](CN(C)CC2CC2)OCCCC[C@H](C)Oc2ccc(NC(=O)c3ccccc3)cc2C1=O
18. C[C@@H]1CN([C@H](C)CO)C(=O)c2cc(-c3ccc(C#N)cc3)cnc2O[C@H]1CN(C)Cc1ccncc1
19. CC(C)NC(=O)Nc1ccc2c(c1)CC(=O)N(C)C[C@H](C)[C@H](CN(C)S(C)(=O)=O)O2
20. CCC(=O)N(C)C[C@@H]1Oc2cc(-c3ccccc3OC)ccc2S(=O)(=O)N([C@H](C)CO)C[C@H]1C
21. COc1ccc(-c2ccc([C@H]3[C@H]4CN(C(=O)C5CCOCC5)CC(=O)N4[C@H]3CO)cc2)cc1
22. Cc1ccc(S(=O)(=O)N(C)C[C@H]2Oc3ccc(NC(=O)CCCCCC(=O)Nc4ccccc4N)cc3C(=O)N([C@H](C)CO)C[C@H]2C)cc1
23. C[C@H](O)C#Cc1cnc2c(c1)C(=O)N([C@@H](C)CO)C[C@H](C)[C@H](CN(C)CC1CCCCC1)O2
24. C[C@H](CO)N1C[C@H](C)[C@@H](CN(C)Cc2ccncc2)Oc2ncc(Br)cc2C1=O
Assay by compound,17,18,19,20,21,22,23,24
Ecoli rRNA inh,0,3,1,-1,1,-4,2,3&1
Ecoli rRNA inh OD600,10,6,8,-7,6,-2,9,13&-4
Ecoli rRNA inh RFP,1.0,0.7,-1.9,-0.8,-0.9,-0.3,-0.9,-2.2&-3.9

25. C[C@@H]1CN([C@H](C)CO)C(=O)c2cccc(NS(C)(=O)=O)c2O[C@@H]1CN(C)CC1CC1
26. COc1ccc(Nc2c(CC(C)C)nc3nc(C)cc(C)n23)cc1
27. C[C@H]1CN([C@@H](C)CO)C(=O)Cc2cc(NS(=O)(=O)c3ccccc3)ccc2O[C@H]1CN(C)Cc1ccc(C(F)(F)F)cc1
28. CO[C@H]1CN(C)C(=O)c2ccc(NC(C)=O)cc2OC[C@H](C)N(Cc2ccccc2C(=O)O)C[C@@H]1C
29. CC1(C(=O)NS(=O)(=O)c2ccc(Br)cc2)CCN1C(=O)CCc1cccs1 (stereo unspecified)
30. N#Cc1cccc(-c2ccc([C@@H]3[C@@H](CO)N4CCCCN(C(=O)Nc5ccc(F)cc5)C[C@H]34)cc2)c1
31. O=C(Cc1cccc2ccccc12)NN=Cc1ccc2c(c1)CCC2
32. COc1ccc(S(=O)(=O)N(C)C[C@@H]2Oc3ccc(NC(=O)Nc4ccc(C(F)(F)F)cc4)cc3C(=O)N([C@H](C)CO)C[C@@H]2C)cc1
Assay by compound,25,26,27,28,29,30,31,32
Ecoli rRNA inh,3,6,2,2,12,-38,2,3
Ecoli rRNA inh OD600,17,8,6,5,17,-50,-5,3
Ecoli rRNA inh RFP,-1.3,-4.9,-1.5,1.1,-0.2,15,2.4,3.1

Some of these compounds in order of heavy-atom count, ascending.
29. CC1(C(=O)NS(=O)(=O)c2ccc(Br)cc2)CCN1C(=O)CCc1cccs1 (stereo unspecified)
30. N#Cc1cccc(-c2ccc([C@@H]3[C@@H](CO)N4CCCCN(C(=O)Nc5ccc(F)cc5)C[C@H]34)cc2)c1
27. C[C@H]1CN([C@@H](C)CO)C(=O)Cc2cc(NS(=O)(=O)c3ccccc3)ccc2O[C@H]1CN(C)Cc1ccc(C(F)(F)F)cc1
32. COc1ccc(S(=O)(=O)N(C)C[C@@H]2Oc3ccc(NC(=O)Nc4ccc(C(F)(F)F)cc4)cc3C(=O)N([C@H](C)CO)C[C@@H]2C)cc1
Assay by compound,29,30,27,32
Ecoli rRNA inh,12,-38,2,3
Ecoli rRNA inh OD600,17,-50,6,3
Ecoli rRNA inh RFP,-0.2,15,-1.5,3.1

More results
33. O=C(C[C@@H]1C[C@H]2c3cc(NC(=O)CC4CC4)ccc3O[C@H]2[C@@H](CO)O1)NCc1ccccc1
34. COc1cccc(NC(=O)N[C@@H]2C=C[C@@H](CC(=O)N3CCCCC3)O[C@H]2CO)c1
35. CNC(=O)C[C@H]1CC[C@@H]2[C@@H](COc3ccc(NC(=O)c4cccc(F)c4)cc3C(=O)N2C)O1
36. CC(C)(C)n1nnnc1C(CCc1ccccc1)N1CCN(C/C=C/c2ccccc2)CC1 (stereo unspecified)
37. COc1ccccc1NC(=O)N[C@H]1CC[C@@H](CCNC(=O)c2ccc3c(c2)OCO3)O[C@@H]1CO
38. Cc1ccc(S(=O)(=O)N(C)C[C@H]2Oc3ccc(NC(=O)Nc4ccc(C(F)(F)F)cc4)cc3C(=O)N([C@H](C)CO)C[C@@H]2C)cc1
39. COc1ccc(C(NC(=O)C2CCN(C/C=C/c3ccc(OC(C)=O)c(OC)c3)CC2)c2ccccn2)cc1 (stereo unspecified)
40. CC(C)NC(=O)N(C)C[C@H]1Oc2ccc(NS(C)(=O)=O)cc2C(=O)N([C@H](C)CO)C[C@H]1C
41. C[C@@H](NC(=O)C[C@@H]1C[C@H]2c3cc(NC(=O)CN(C)C)ccc3O[C@H]2[C@H](CO)O1)c1ccccc1
Assay by compound,33,34,35,36,37,38,39,40,41
Ecoli rRNA inh,4,3,-2&1,-50,-3,-1,5,3,1
Ecoli rRNA inh OD600,1,11,-5&-2,-74,-11,8,17,6,-3
Ecoli rRNA inh RFP,-2.4,-0.4,-3.4&-1.9,-9.0,-1.0,-0.5,-1.2,1.9,0.7

As entered above.
Under Ecoli rRNA inh, cpd 28 is entered as 2
Under Ecoli rRNA inh RFP, cpd 25 is entered as -1.3
Under Ecoli rRNA inh OD600, cpd 20 is entered as -7

Bioassay records: PubChem BioAssay, Broad Institute

A portion of the library. The share of hits here may be higher or lower than overall.
